Screening data: PubChem, Broad Institute
Yeast UUG start: modulators of yeast start codon fidelity, primary screen, whole organism, S. cerevisiae, single point, plate reader. S. cerevisiae UUG-firefly luciferase reporter, luminescence/redox ratio. activity score, % at 18.7 µM. hit rate 0.13% among 350,000. AID 602363, 2012;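 active = replicate mean at a twofold rise or more, about +100% in these data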;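 note: firefly luciferase made from a UUG start codon reports start codon fidelity; reporter light over untreated wells divided by growth signal over untreated wells; some hits fall short of that in this replicate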
Starred values were filed as active, the others as inactive. This is a subset (hit frequency here may not be typical).

SMILES	Yeast UUG start
C[C@@H]1CN([C@H](C)CO)C(=O)c2cccc(NC(=O)NC3CCCCC3)c2O[C@@H]1CN(C)S(=O)(=O)c1ccc(Cl)cc1	-8
COc1ccc(-c2ccc([C@@H]3[C@H]4CN(CC5CCOCC5)CCCCN4[C@H]3CO)cc2)cc1	0
CCCNC(=O)[C@@H]1[C@@H](CO)[C@@H]2Cn3c(cccc3=O)[C@H]1N2C(=O)C1CCCC1	-7
COCC(=O)N(C)C[C@@H]1[C@@H](c2ccc(-c3cccnc3)cc2)[C@H](CO)N1C(C)=O	9
CC(C)NC(=O)Nc1cccc2c1O[C@H](CN(C)S(=O)(=O)c1ccccc1)[C@H](C)CN([C@@H](C)CO)C2=O	6
CO[C@@H]1CN(C)C(=O)c2ccc(NC(=O)C3CCOCC3)cc2OC[C@@H](C)N(Cc2cccnc2)C[C@H]1C	-3
Cc1ccc(S(=O)(=O)Nc2cccc3c2O[C@H](CN(C)Cc2ccc(C(F)(F)F)cc2)[C@@H](C)CN([C@@H](C)CO)C3=O)cc1	21
CCC(=O)N1[C@H](CO)[C@@H](c2ccccc2)[C@@H]1CNC(=O)CN1CCOCC1	-18
CCC(=O)Nc1ccc2c(c1)C(=O)N(C)C[C@H](OC)[C@@H](C)CN[C@@H](C)CO2	3
O=S(=O)(c1ccccc1F)N1CC[C@@H]2[C@@H](CO)Nc3ccc(-c4cccc(F)c4)cc3[C@@H]21	-12
CC(C)NC(=O)Nc1cccc2c1O[C@@H](CN(C)Cc1ccc(C(=O)O)cc1)[C@@H](C)CN([C@H](C)CO)C2=O	2
Cc1cccc(S(=O)(=O)N2CCCCN3[C@H](CO)[C@H](c4ccc(C#CC(C)C)cc4)[C@H]3C2)c1	4
Cc1noc(C)c1NC(=O)Nc1cccc2c1O[C@H](CN(C)C)[C@H](C)CN([C@H](C)CO)C2=O	13
COc1ccc(NC(=O)N(C)C[C@H]2Oc3ccc(NC(=O)CCCN(C)C)cc3C(=O)N([C@H](C)CO)C[C@H]2C)cc1	7
CO[C@H]1CN(C)C(=O)c2ccc(NC(=O)c3ccccc3F)cc2OC[C@H](C)N(C(=O)c2ccccc2F)C[C@H]1C	11
C[C@@H]1CN([C@H](C)CO)C(=O)Cc2cc(NC(=O)Nc3ccc(F)cc3)ccc2O[C@H]1CN(C)Cc1ccc2c(c1)OCO2	-9
C[C@H]1CN([C@@H](C)CO)C(=O)c2cccc(NC(=O)c3cnccn3)c2O[C@@H]1CN(C)Cc1ccncc1	6
CN1CCN(C(=O)[C@@H]2[C@@H](CO)[C@@H]3Cn4c(ccc(C5=CCCC5)c4=O)[C@H]2N3S(C)(=O)=O)CC1	13
O=C(c1cccnc1)N1C[C@@H]2[C@H](c3ccccc31)[C@H](CO)N2C(=O)C1CCCCC1	-10
COc1ccc(S(=O)(=O)Nc2ccc3c(c2)C(=O)N([C@H](C)CO)C[C@H](C)[C@H](CN(C)C(=O)Nc2cccc4ccccc24)O3)cc1	0
C[C@H](CO)N1C[C@H](C)[C@H](CN(C)Cc2ccc(-c3ccccc3)cc2)Oc2ccc(NC(=O)CCCN(C)C)cc2C1=O	-11
O=S(=O)(Cc1ccccc1)N1CCCCN2[C@@H](CO)[C@H](c3ccc(-c4ccccc4)cc3)[C@@H]2C1	-9
COc1ccc(CN(C)C[C@@H]2Oc3ccc(NC(=O)Nc4ccc(F)cc4)cc3C(=O)N([C@H](C)CO)C[C@H]2C)cc1	12
CO[C@H]1CN(C)C(=O)c2ccc(NC(=O)Nc3cc(F)ccc3F)cc2OC[C@H](C)N(C(=O)c2ccccn2)C[C@H]1C	5
C[C@@H]1CN([C@@H](C)CO)C(=O)c2cccc(NS(=O)(=O)c3ccccc3)c2O[C@@H]1CN(C)S(C)(=O)=O	7
(listing goes on)
SMILES	Yeast UUG start
CCCC#Cc1ccc([C@@H]2[C@@H](CO)N3CCCCN(S(=O)(=O)Cc4ccccc4)C[C@H]23)cc1	9
O=C(CC(F)(F)F)N1C[C@@H]2[C@H](c3ccccc31)[C@@H](CO)N2CC1CCOCC1	21
CCC(=O)N1C[C@@H]2[C@H](c3ccccc31)[C@H](CO)N2Cc1ccccc1F	0
O=C(c1cccc(F)c1)N1CCCCN2[C@@H](CO)[C@@H](c3ccc(-c4ccccc4)cc3)[C@@H]2C1	7
C[C@@H]1CN([C@H](C)CO)C(=O)c2cc(NC(=O)CCC(F)(F)F)ccc2O[C@@H]1CN(C)S(=O)(=O)c1ccccc1	-93
C[C@@H]1CN([C@H](C)CO)C(=O)c2c(c3ccccc3n2C)-c2ccccc2CO[C@@H]1CN(C)C(=O)Nc1ccccc1	8
COc1ccccc1C#Cc1ccc([C@H]2[C@H](CO)N3CCCCN(C(=O)C4CCCC4)C[C@@H]23)cc1	-12
OC[C@H]1[C@@H](c2ccc(-c3ccccc3)cc2)[C@@H]2CN(Cc3cncnc3)CCCCN12	0
CN(C[C@@H]1[C@H](c2ccccc2)[C@@H](CO)N1Cc1ccccn1)S(C)(=O)=O	-11
COC(=O)C[C@H]1CC[C@@H]2[C@H](COc3ccc(NC(=O)c4cscn4)cc3C(=O)N2C)O1	-2
CN(C)C(=O)c1ccc(-c2ccc([C@H]3[C@H]4CN(CCC(F)(F)F)CCCCN4[C@H]3CO)cc2)cc1	21
O=C(C1CCOCC1)N1CC[C@@H]2[C@@H](CO)Nc3ccc(Br)cc3[C@@H]21	29
CCCNC(=O)[C@@H]1[C@@H](CO)[C@@H]2Cn3c(ccc(-c4ccccc4F)c3=O)[C@@H]2N1CCC	1
O=C(C[C@H]1CC[C@H]2NC[C@@H](O)COC[C@@H]2O1)Nc1ccccc1	-1
CN1C[C@H]2[C@@H](c3ccccc31)[C@@H](CO)N2C(=O)CN1CCOCC1	-12
CCC(=O)N1C[C@H]2[C@@H](c3ccccc31)[C@@H](CO)N2Cc1ccc(F)cc1	-4
C[C@H](CO)N1C[C@H](C)[C@@H](CN(C)C(=O)Nc2cccc(F)c2)OCc2cnnn2CCCC1=O	9
O=C(C[C@H]1CC[C@@H]2[C@H](COC[C@H](O)CN2S(=O)(=O)c2ccc(F)cc2)O1)NCc1ccc(Cl)c(Cl)c1	8
Cc1cc(C(=O)Nc2cccc3c2O[C@@H](CN(C)Cc2ccc(-c4ccccc4)cc2)[C@@H](C)CN([C@@H](C)CO)C3=O)n(C)n1	-2
C[C@H]1CN([C@@H](C)CO)C(=O)c2cc(NS(=O)(=O)c3ccc(Cl)cc3)ccc2O[C@@H]1CN(C)C(=O)Nc1ccc2c(c1)OCO2	12
O=C(NC1CCCC1)[C@H]1[C@H](CO)[C@H]2Cn3c(cccc3=O)[C@@H]1N2Cc1cc(F)ccc1F	-9
CNC(=O)C[C@H]1CC[C@H]2[C@@H](COC[C@@H](O)CN2C(=O)c2ccccn2)O1	-14
C[C@@H]1CN([C@H](C)CO)C(=O)c2cc(NC(=O)Cc3cn(C)c4ccccc34)ccc2O[C@H]1CN(C)C(=O)Nc1ccc(F)cc1	14
COc1ccc(NC(=O)N2CCCCN3[C@H](CO)[C@@H](c4ccc(C5=CCCCC5)cc4)[C@H]3C2)cc1	13
CN1CCCCN2[C@H](CO)[C@@H](c3ccc(-c4cccnc4)cc3)[C@H]2C1	-13
New compounds follow
SMILES	Yeast UUG start
CN(C)CC(=O)N1CCCCN2[C@H](CO)[C@H](c3ccc(/C=C/c4ccccc4)cc3)[C@H]2C1	-2
CC(C)NC(=O)N(C)C[C@@H]1Oc2ccc(NC(=O)Cc3ccccc3)cc2CC(=O)N([C@H](C)CO)C[C@H]1C	5
CO[C@H]1CN(C)C(=O)c2cc(NC(=O)C3CC3)ccc2OC[C@H](C)N(Cc2nccs2)C[C@H]1C	2
Cc1ccc(-c2ccc([C@H]3[C@@H](CO)N4CCCCN(C(=O)c5ccncc5)C[C@H]34)cc2)cc1	-11
COc1ccc(NC(=O)N2CCCCN3[C@H](C2)[C@H](c2ccc(C4=CCCC4)cc2)[C@@H]3CO)cc1	3
CC(=O)N1CCCCN2[C@H](CO)[C@H](c3ccc(-c4cccc(C(=O)N(C)C)c4)cc3)[C@H]2C1	23
C[C@H]1CN([C@@H](C)CO)C(=O)c2cccc(NS(=O)(=O)c3ccc(Cl)cc3)c2O[C@H]1CN(C)C(=O)NC1CCCCC1	22
C[C@@H]1CN([C@@H](C)CO)C(=O)c2cccc(NS(=O)(=O)c3cccs3)c2O[C@@H]1CN(C)Cc1ccncc1	-14
COCC(=O)N1CCCCN2[C@H](C1)[C@H](c1ccc(-c3cccc(C)c3)cc1)[C@@H]2CO	-10
CC(C)C#Cc1ccc([C@H]2[C@H]3CN(C(=O)c4ccc(F)cc4)CCCCN3[C@H]2CO)cc1	7
CNC[C@H]1[C@@H](c2ccccc2)[C@@H](CO)N1C(=O)Nc1cccc(OC)c1	-6
COCC(=O)N1C[C@@H]2[C@H](c3ccccc31)[C@H](CO)N2C(=O)C1CCOCC1	7
C[C@@H]1CN([C@H](C)CO)C(=O)c2cccc(NC(=O)Nc3ccccc3)c2O[C@H]1CN(C)Cc1ccncc1	-20
Cc1ccccc1-c1ccc([C@H]2[C@H]3CN(C(=O)c4cccnc4)CCCCN3[C@H]2CO)cc1	-15
CCCNC(=O)C[C@@H]1CC[C@H]2[C@@H](COC[C@H](O)CN2C(=O)Nc2c(C)noc2C)O1	-9
OC[C@@H]1[C@H](c2ccc(/C=C/c3ccccc3)cc2)[C@H]2CN(Cc3cccnc3)CCCCN12	-23
C[C@H](CO)N1C[C@H](C)[C@@H](CN(C)Cc2ccc(C(=O)Nc3ccccc3N)cc2)OCc2cnnn2CCCC1=O	-1
CC(=O)N1CCCCN2[C@H](CO)[C@@H](c3ccc(-c4cccc(C(=O)N(C)C)c4)cc3)[C@H]2C1	11
COc1cccc(-c2ccc([C@H]3[C@H]4CN(C(=O)c5ccc6c(c5)OCO6)CCCCN4[C@H]3CO)cc2)c1	7
COc1ccccc1C(=O)N1C[C@H]2[C@@H](c3ccccc31)[C@@H](CO)N2C(=O)C1CCCCC1	-5
Cc1ccc(-c2ccc([C@@H]3[C@H](CO)N4CCCCN(C(=O)c5ccncc5)C[C@@H]34)cc2)cc1	-12
C[C@H]1CN([C@@H](C)CO)C(=O)c2cc(NC(=O)CCN3CCOCC3)ccc2O[C@H]1CN(C)Cc1ccc(Oc2ccccc2)cc1	-2
O=C(C1CCOCC1)N1C[C@H]2[C@@H](c3ccccc31)[C@@H](CO)N2Cc1ccc(Cl)cc1	-6
COc1ccccc1-c1ccc2c(c1)[C@@H]1[C@@H](CCN1S(=O)(=O)c1cn(C)cn1)[C@@H](CO)N2	-3
Cc1noc(C)c1NC(=O)Nc1ccc2c(c1)C(=O)N([C@@H](C)CO)C[C@H](C)[C@H](CN(C)C(=O)NC(C)C)O2	-10

Rewritten with values ahead of the structure: entries from further up
Yeast UUG start | Compound
23 | CC(=O)N1CCCCN2[C@H](CO)[C@H](c3ccc(-c4cccc(C(=O)N(C)C)c4)cc3)[C@H]2C1
22 | C[C@H]1CN([C@@H](C)CO)C(=O)c2cccc(NS(=O)(=O)c3ccc(Cl)cc3)c2O[C@H]1CN(C)C(=O)NC1CCCCC1
-14 | C[C@@H]1CN([C@@H](C)CO)C(=O)c2cccc(NS(=O)(=O)c3cccs3)c2O[C@@H]1CN(C)Cc1ccncc1
-10 | COCC(=O)N1CCCCN2[C@H](C1)[C@H](c1ccc(-c3cccc(C)c3)cc1)[C@@H]2CO

Quoted from the listing:
Result of Cc1ccc(-c2ccc([C@H]3[C@@H](CO)N4CCCCN(C(=O)c5ccncc5)C[C@H]34)cc2)cc1 under Yeast UUG start: -11
Result of CNC[C@H]1[C@@H](c2ccccc2)[C@@H](CO)N1C(=O)Nc1cccc(OC)c1 under Yeast UUG start: -6

(cont.)
SMILES	Yeast UUG start
CO[C@@H]1CN(C)C(=O)c2ccc(NC(C)=O)cc2OC[C@H](C)N(C(=O)c2cccnc2)C[C@H]1C	-8
COCCNC(=O)[C@H]1[C@H](CO)[C@H]2Cn3c(ccc(-c4ccccc4F)c3=O)[C@H]2N1C(=O)C1CC1	-13
O=C(Nc1ccccc1)N1C[C@@H]2[C@H](c3ccccc31)[C@H](CO)N2CC1CCCC1	-8
COc1ccc(CN2C[C@@H](O)COC[C@H]3O[C@H](CC(=O)N4CCc5ccccc5C4)CC[C@@H]32)cc1	-18
CCCNC(=O)N1C[C@H]2[C@@H](c3ccccc31)[C@H](CO)N2Cc1ccc2c(c1)OCO2	-5
CN1CCCCN2[C@@H](CO)[C@@H](c3ccc(/C=C/c4ccccc4)cc3)[C@@H]2C1	7
COc1ccc(CN(C)C[C@H]2Oc3c(NC(=O)Nc4ccc(C(F)(F)F)cc4)cccc3C(=O)N([C@H](C)CO)C[C@H]2C)cc1	1
O=S(=O)(c1cccs1)N1CCCCN2[C@@H](CO)[C@@H](c3ccc(/C=C/c4ccccc4)cc3)[C@@H]2C1	-8
O=C(Nc1ccc(F)cc1)N1CCCCN2[C@@H](CO)[C@H](c3ccc(C4=CCCCC4)cc3)[C@@H]2C1	-3
CN1c2ccc(Br)cc2[C@H]2[C@H](CCN2C(=O)Nc2cccc(F)c2)[C@H]1CO	0
CC(C)(O)C#Cc1ccc([C@H]2[C@H]3CN(Cc4ccccc4F)CCCCN3[C@H]2CO)cc1	9
CN(C)C(=O)c1ccc(-c2ccc3c(c2)[C@H]2[C@H](CCN2C(=O)c2ccccc2F)[C@@H](CO)N3)cc1	0
O=S(=O)(c1ccc(F)cc1)N1CCCCN2[C@H](CO)[C@H](c3ccc(-c4ccccc4F)cc3)[C@@H]2C1	4
COCC(=O)N1[C@@H]2CN(C(=O)c3ccccc3)c3ccccc3[C@@H]2[C@@H]1CO	-1
COc1ccc(CN(C)C[C@@H]2Oc3ccc(NC(=O)Cn4cnnn4)cc3CC(=O)N([C@H](C)CO)C[C@@H]2C)cc1	-1
C[C@@H]1CN([C@H](C)CO)C(=O)c2cccc(NC(=O)C3CCCCC3)c2O[C@H]1CN(C)Cc1ccc2c(c1)OCO2	23
C[C@@H]1CN([C@H](C)CO)C(=O)c2cc(NS(=O)(=O)c3cn(C)cn3)ccc2O[C@H]1CN(C)S(=O)(=O)c1ccc(F)cc1	-9
